# GLA inh pH 4.5 – inhibitors of human alpha-galactosidase A at pH 4.5; purified enzyme, 4-MU-alpha-Gal fluorescence, pH 4.5; P06280; 230,000 tested, under 10 active; activity change, negative = inhibition, % at 105 µM; inconclusive = small, poorly fitted or top-dose-only inhibition, or a rising curve; inactive = flat fitted curve, though single readings scatter; no compound was filed as active;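 note: 0% = full activity with enzyme and -100% = basal without enzyme; dose as in the result columns while the protocol names 77 µM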
# Target sequence (P06280 whole entry, looked up): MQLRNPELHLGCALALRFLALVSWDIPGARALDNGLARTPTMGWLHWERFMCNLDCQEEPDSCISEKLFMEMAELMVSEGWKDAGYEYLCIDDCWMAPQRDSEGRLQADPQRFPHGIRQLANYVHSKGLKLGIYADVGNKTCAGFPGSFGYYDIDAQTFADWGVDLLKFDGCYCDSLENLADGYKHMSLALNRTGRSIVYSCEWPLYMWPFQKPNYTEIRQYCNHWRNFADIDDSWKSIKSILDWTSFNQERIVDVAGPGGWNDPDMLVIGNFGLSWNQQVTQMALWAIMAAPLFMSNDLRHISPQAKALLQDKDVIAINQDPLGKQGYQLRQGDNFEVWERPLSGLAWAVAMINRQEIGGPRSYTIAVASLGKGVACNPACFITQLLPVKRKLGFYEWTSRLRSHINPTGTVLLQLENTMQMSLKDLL
# * = called active by the depositor; & = joins results of further samples.
SMILES | GLA inh pH 4.5
O=c1ccn(C2OC(COP(=O)(O)OP(=O)(O)OP(=O)(O)O)C(O)C2O)c(=O)[nH]1 (centres undefined) | 6
NCCC[C@@H](CC(=O)N[C@@H]1CCNC[C@H]1C(=O)N[C@H](CC(=O)N[C@@H](CCC(=O)O)CC(=O)O)Cc1ccccc1)NC(=O)C[C@H](Cc1c[nH]c2ccccc12)NC(=O)[C@@H]1CNCC[C@H]1N | -2
CO[C@H]1[C@H](O[C@H]2O[C@@H](C)[C@@H](O[C@@H]3C[C@](C)(O)[C@H](O)[C@H](C)O3)[C@@H](N(C)C)[C@@H]2O)[C@@H](CC=O)C[C@@H](C)[C@@H](O[C@H]2CC[C@H](N(C)C)[C@H](C)O2)/C=C\C=C/C[C@@H](C)OC(=O)C[C@H]1O | 4
CCCCC/C=C\C/C=C\C/C=C\CCCCC(=O)NCC(=O)O | -3
COc1cc(O)c(C(=O)c2ccccc2)cc1O | -4
CC1OC(OCC2OC(Oc3c(-c4ccc(OCCO)c(OCCO)c4)oc4cc(OCCO)cc(O)c4c3=O)C(O)C(O)C2O)[C@@H](O)C(O)C1O (some centres undefined) | 2
c1nc(N2CCNCC2)c2cc(-c3ccc4c(c3)OCO4)ccc2n1 | -6
C/C=C(\C)C(=O)OC1[C@@H]2C=C3C4CC(=O)OC(c5ccoc5)[C@]4(C)CCC3[C@@](C)(C2=O)C(C(O)C(=O)OC)C1(C)C (some centres undefined) | 5
CCCCCC1=C2CNC(CC(C)C)(C(=O)OC)C=C2C(C)C1=O (centres undefined) | -3
COc1ccccc1CNc1ccnc(-c2ccccc2C(F)(F)F)n1 | -3
CC(C)=CCOc1ccc(/C=C/C(=O)c2ccc(OCC=C(C)C)cc2OCC(=O)O)cc1 | 4
O=C(O)C1=CC(=C(c2ccc(O)c(C(=O)O)c2)c2ccc(O)c(C(=O)O)c2)C=CC1=O | 1&10
Cc1nc(NC2CCCCC2)c2nc(-c3ccccc3)n(CCN3CCCC3)c2n1 | -7
CC(=O)OC1CC[C@]2(C)C(CC[C@@]3(C)C2C(=O)C=C2C4C(C)C(C)CC[C@@]4(C(=O)O)CCC23C)C1(C)C (some centres undefined) | -2
NCCS(=O)O | -5&3
Cc1cccc(C2=NN(c3ccccc3)[C@H](CO)[C@H]2C)c1 | 15
NCC1O[C@@H](O[C@H]2C(O)C(O[C@@H]3C(O[C@H]4OC(CO)C(O)C(O)C4N)C(N)CC(N)[C@H]3O)O[C@@H]2CO)C(N)C(O)C1O (some centres undefined) | 2
CCOC(=O)NC[C@H](Cc1ccc(OCCc2nc(-c3ccccc3)oc2C)cc1)N/C(C)=C\C(=O)c1ccc(C(F)(F)F)cc1 | -2
CCCCC/C=C\C[C@@H]1O[C@H]1/C=C/C(O)C/C=C\CCCC(=O)O (some centres undefined) | -6
C[C@@H](C(=O)NCc1cccc2ccccc12)[C@H]1C[C@]1(C)[C@H](NC(=O)OCc1ccccc1)c1ccccc1 | -4
Cc1nc(N2CCOCC2)c2nc(-c3ccccc3)n(CCN3CCOCC3)c2n1 | -1
CCOC(=O)CN1C(=O)N[C@@H](c2ccccc2)[C@H](C(=O)OC)[C@H]1C | -3
CCCCC(=O)OC1CCC2C3CCc4cc(O)ccc4C3CC[C@]12C (some centres undefined) | 3
CCCCS(=O)(=O)N1CCc2nc(-c3ccc(OC)cc3C)c3c(c2C1)CO[C@@H](c1ccccc1)C3 | 5
C=CCN1c2ccccc2[C@]23C[C@@H](C(=O)OC)N(S(=O)(=O)c4ccc(C)cc4)C2=NC(C(=O)OC)=C(C(=O)OC)[C@H]13 | -1
CCCCCCCCCCCCCCCCCCO | -5
Cc1ccc2[nH]c(-c3ccc(F)cc3F)cc(=O)c2c1 | 0
COC(=O)C1=COC(O[C@H]2OC(CO)[C@H](O)C(O)C2O)[C@H]2C1C(=O)C[C@@H]2C (some centres undefined) | 0
COC(=O)[C@@]1(Cc2ccc(F)cc2)[C@H]2c3cc(C(=O)N(C)C)n(CCc4ccc(O)c(O)c4)c3C[C@H]2CN1C(=O)c1ccccc1 | -5
C[C@@H]([C@H](O)c1ccc(O)cc1)N1CCC(Cc2ccccc2)CC1 | 0&-8
CCOC(=O)C(C(=O)c1ccccc1)[C@H](CCc1ccccc1)NC(=O)OC (some centres undefined) | -4
COc1cc(CCN2C(=O)N[C@@H](c3ccccc3)C(C(C)=O)=C2C)cc(OC)c1OC | -7
COc1ccc2[nH]c(-c3ccccc3)cc(=O)c2c1 | -3
COC(=O)CC1Oc2cc3oc4c(c3cc2O1)C(=O)CC(C)(C)C4 (centres undefined) | -4
NC(=O)N/N=C\c1ccc([N+](=O)[O-])o1 | -3
CCCCc1nc2c(c3c1C[C@H](C)OC3)CN(C(=O)C1CCCCC1)CC2 | 3
COC(=O)CCCC1=CC2=CC(=O)C(C)(O)C(=O)C2=CO1 (centres undefined) | -12
C=CC1=C2C=C(C3CC3)N(C3CCCC3)C=C2C(=O)C(C)(OC(=O)c2ccco2)C1=O (centres undefined) | 9
COC(=O)[C@@]1(Cc2ccc(F)cc2)[C@H]2c3cc(C(=O)N(C)C)n(Cc4ccc(Cl)c(C(F)(F)F)c4)c3C[C@H]2CN1C(=O)c1ccccc1 | -7
NO | 2
CCCCCCCCCCCCCCCCCC(=O)OC(CC(=O)O)C[N+](C)(C)C (centres undefined) | -3
N[C@@](C(=O)O)(c1ccc(P(=O)(O)O)cc1)C1CC1 | -4
C=CCOC(=O)N[C@@H](c1cccs1)C(C(C)=O)C(C)=O | -1
O=C1CC(c2ccc3c(c2)OCO3)c2ccc(O)cc2O1 (centres undefined) | -6
N[C@@H](CCC(=O)N[C@H](CSN=O)C(=O)NCC(=O)O)C(=O)O | -4
N[C@H](Cc1cc(I)c(Oc2ccc(O)c(I)c2)c(I)c1)C(=O)O | 0
O=CN1CCc2c([nH]c3ccccc23)C1c1cccc2cccnc12 (centres undefined) | 1
CC(C)(C)Nc1oc(-c2ccccc2)nc1-c1ccccc1 | 0
COc1cc2oc(-c3ccccc3)cc(=O)c2cc1O | -5
N[C@H](C(=O)O)[C@@H]1[C@@H](C(=O)O)C1(F)F | 7

# An excerpt of these results, with values ahead of the structure.
GLA inh pH 4.5 | Structure
-3 | CCCCC/C=C\C/C=C\C/C=C\CCCCC(=O)NCC(=O)O
-4 | COc1cc(O)c(C(=O)c2ccccc2)cc1O

# (cont.)
SMILES | GLA inh pH 4.5
CC/C=C\C/C=C\C/C=C\C/C=C\C/C=C\C/C=C\CCC(N)=O | -5
CCCn1c(C)nc2c(NCCN3CCCC3)nc(C)nc21 | -2
COc1c2c(cc3c1C(CC(=O)c1c(O)c(OC)c4occc4c1OC)[N+](C)(C)CC3)OCO2 (centres undefined) | -5
CSC(N)=NCCC[C@H](N)C(=O)O | 1
CC(=O)[C@@H]1CC[C@@H]2[C@@H]3CCC4=CC(=O)CC[C@@]4(C)[C@H]3CC[C@]21C | -9
COC1C(O)C(CO)OC1n1c(Br)nc2c(=O)[nH]c(N)nc21 (centres undefined) | 2
COC(=O)[C@@]1(Cc2ccccc2)[C@H]2c3cc(C(=O)N4CCCC4)n(CCN4CNCC4=O)c3C[C@H]2CN1C(=O)c1ccccc1 | -6
COc1c(Cl)ccc(Cl)c1C(=O)O | 5
O=c1c2ccccc2oc2cc(O)c(C3COCC(CO)C(O)C(O)C3O)c(O)c12 (centres undefined) | -10
CC1(C)CCC(C)(C)c2cc(C(=O)Nc3ccc(C(=O)O)cc3)ccc21 | -4&-3
COC(=O)C1(C(=O)OC)CC(CO)C(=O)[C@H]1c1ccccc1 (some centres undefined) | -5&-2
CCN1CCCC1Cn1c(-c2ccccc2)nc2c(NCCOC)nc(C)nc21 (centres undefined) | -1
N=C(N)SCCc1ccc(CCSC(=N)N)cc1 | -5
COc1ccc(-c2coc3c(O)c(OC)ccc3c2=O)cc1 | -3
COc1cc(O)c(C(=O)/C=C/c2ccc(OC)c(O)c2)c(OC)c1 | -3
CN1CCc2cc(Cl)c(O)cc2C(c2ccccc2)C1 (centres undefined) | -2
NC(=O)c1cc[n+](CC2=C(C(=O)O)N3C(=O)[C@@H](NC(=O)[C@@H](c4ccccc4)S(=O)(=O)[O-])[C@H]3SC2)cc1 | -1
CCC/C=C(\CCC)C(NS(=O)(=O)c1ccccc1)c1ccc(C(F)(F)F)cc1 (centres undefined) | -13
CC(C)(C)C(=O)OCOC(=O)[C@@H]1N2C(=O)[C@@H](NC(=O)[C@H](N)c3ccccc3)[C@H]2SC1(C)C | 2
C/C=C1\C(=O)CC2C3CCC4=CC(=O)CC[C@]4(C)C3CC[C@]12C (some centres undefined) | -2&-7
COC(=O)C1=C(C)NC(C)=C(C(=O)OCCSc2ccccc2)[C@@H]1C | -17
CC(=O)Oc1ccc2c(c1)CCC1C2CC[C@]2(C)C(OC(C)=O)CCC12 (some centres undefined) | -20
CCCC[C@@H]1C[C@H]1[C@@H](NP(=O)(c1ccccc1)c1ccccc1)c1ccccc1OC | -2
COCOc1cc(OC)ccc1C(=O)/C=C/c1ccc([N+](=O)[O-])cc1 | -5
COC(=O)c1ccc(C(NC(=O)OCc2ccccc2)/C(C)=C/[C@@H](C)C(=O)NCc2nc3ccccc3s2)cc1 (some centres undefined) | -9

# Retrieved by compound from the entries so far (four):
SMILES | GLA inh pH 4.5
CCCn1c(C)nc2c(NCCN3CCCC3)nc(C)nc21 | -2
N[C@@H](CCC(=O)N[C@H](CSN=O)C(=O)NCC(=O)O)C(=O)O | -4
COC(=O)c1ccc(C(NC(=O)OCc2ccccc2)/C(C)=C/[C@@H](C)C(=O)NCc2nc3ccccc3s2)cc1 (some centres undefined) | -9
CCOC(=O)CN1C(=O)N[C@@H](c2ccccc2)[C@H](C(=O)OC)[C@H]1C | -3

# Carrying on:
SMILES | GLA inh pH 4.5
NCCCCCCCCCCN | 1
COc1cc2c(cc1O)CCC1C2CC[C@]2(C)[C@@H](O)CC[C@@H]12 (some centres undefined) | -5
COc1ccc2c(c1)O[C@@H](c1cccc(C(F)(F)F)c1)[C@H](OC(=O)NC1CCCC1)C2=O | -4
CN1CCc2c(cc(O)c(O)c2Cl)C(c2cccc(Cl)c2)C1 (centres undefined) | 2
CC1(O)C(=O)C=C2C=C(c3ccc(C#N)cc3)OC=C2C1=O (centres undefined) | -2
O=C(Nc1ccccc1)OC[C@H](CN1CCCCC1)OC(=O)Nc1ccccc1 | -3
CCCN[C@@H](C)C(=O)Nc1ccccc1C | 2
CCCCC1=CC2=CC(=O)C(C)(OC(=O)CCC(=O)OC)C(=O)C2=CO1 (centres undefined) | -8
Nc1nc2c(c(=O)[nH]1)N(C=O)C(CNc1ccc(C(=O)NC(CCC(=O)O)C(=O)O)cc1)CN2 (centres undefined) | 5
C[C@](N)(Cc1ccc(O)cc1)C(=O)O | -1&-3
COc1ccc(CNc2ncnc3ccc(-c4ccccc4CN(C)C)cc23)c(OC)c1 | -12
NCC1OC(O[C@@H]2[C@H](O)[C@@H](OC3C(O)C(N)CC(N)C3OC3OC(CO)C(O)C(O)C3N)O[C@@H]2CO)C(N)C(O)C1O (some centres undefined) | -4
Nc1nc2c([nH]c(=S)n2C2OC(CO)C(O)C2O)c(=O)[nH]1 (centres undefined) | -2
COc1ccc(-c2coc3cc(O)ccc3c2=O)c(OC)c1O | 3
COc1ccc(/C=C/C(=O)/C=C/c2ccc(OC)cc2OC)c(OC)c1 | -4
COC(=O)C1=C(C(=O)OC)[C@@H]2N(Cc3ccccc3)c3ccccc3[C@@]23C[C@@H](C(=O)OC)N(S(=O)(=O)c2ccc(C#N)cc2)C3=N1 | 11
FC(F)(F)c1ccc(CN2C[C@@H]3C(c4ccc(C(F)(F)F)cc4)C4(c5ccccc5)CC3(C4)[C@H]2c2ccccc2)cc1 (some centres undefined) | 5
OC[C@@H]1[C@@H](c2ccc(F)cc2)C(c2ccc(F)cc2)=NN1c1ccccc1 | 21
C=C(C(=O)OC)C(NC(=O)OC)c1ccccc1 (centres undefined) | -9
CN(Cc1ccccc1)C(=O)[C@H](Cc1ccc2ccccc2c1)NC(=O)[C@@H]1C[C@@H](O)CN1C(=O)c1cn(C)c2ccccc12 | -10
COc1ccc(C2c3cc(OC)c(OC)cc3Cc3c4cc(OC)c(OC)cc4cc[n+]32)cc1OC (centres undefined) | -4
C=C(C(C)=O)C(O)c1ccco1 (centres undefined) | 0
NCC1CCCCC1CC(=O)O (centres undefined) | 3
C=C/C(=C\C)C[C@@H](CC(=O)N[C@@H](CCC(=O)O)CC(=O)O)NC(=O)[C@@H]1CNCC[C@H]1NC(=O)C[C@@H](NC(=O)C[C@H](Cc1ccccc1)NC(=O)[C@@H]1CCCC[C@H]1N)C(C)C | 0
CC(=O)OC1CC2C(C)(C)C(=O)[C@@H]3OC3[C@@]2(C)C2CC[C@]3(C)C(=CC(=O)OC3c3ccoc3)[C@]12C (some centres undefined) | -3

# Some values from the list:
# CC(C)=CCOc1ccc(/C=C/C(=O)c2ccc(OCC=C(C)C)cc2OCC(=O)O)cc1 – GLA inh pH 4.5: 4
# CCCCC/C=C\C/C=C\C/C=C\CCCCC(=O)NCC(=O)O – GLA inh pH 4.5: -3
# COc1ccc(/C=C/C(=O)/C=C/c2ccc(OC)cc2OC)c(OC)c1 – GLA inh pH 4.5: -4
# Nc1nc2c(c(=O)[nH]1)N(C=O)C(CNc1ccc(C(=O)NC(CCC(=O)O)C(=O)O)cc1)CN2 (centres undefined) – GLA inh pH 4.5: 5
# COC(=O)[C@@]1(Cc2ccccc2)[C@H]2c3cc(C(=O)N4CCCC4)n(CCN4CNCC4=O)c3C[C@H]2CN1C(=O)c1ccccc1 – GLA inh pH 4.5: -6
# COc1ccc(-c2coc3c(O)c(OC)ccc3c2=O)cc1 – GLA inh pH 4.5: -3
# CCOC(=O)CN1C(=O)N[C@@H](c2ccccc2)[C@H](C(=O)OC)[C@H]1C – GLA inh pH 4.5: -3

# (listing goes on)
SMILES | GLA inh pH 4.5
CC(C)C[C@@H](CC(=O)N[C@@H](CCC(=O)O)CC(=O)O)NC(=O)[C@@H]1CNCC[C@H]1NC(=O)C[C@H](CCCN)NC(=O)C[C@H](Cc1c[nH]c2ccccc12)NC(=O)[C@@H]1CCCC[C@H]1N | -2
Clc1ccccc1-c1nccc(-n2ccnc2)n1 | -27
c1cncc(-c2nc(NCCN3CCOCC3)c3ccccc3n2)c1 | -4
COc1ccc2c(c1)O[C@@H](c1ccc3c(c1)OCO3)[C@H](OC(=O)N[C@H](C)C1CCCCC1)C2=O | 1

# An excerpt, so the mix of outcomes need not match the whole.
